Compound activity from PubChem.
INS promoter inh = TRM-6 insulin promoter activity inhibition | inhibition, % at 2 µM | 130,000 tested, 0.9% active | TRM-6 cells (human fetal islet line), insulin promoter-eGFP reporter, imaging; reporter expression induced with tamoxifen | AID 1273;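 active means inhibition above the mean plus 3 SD, with well images judged a real hit on visual review, cut at about 60% in these data, passing the limit was not always enough; inconclusive means inhibition over the cutoff but images rejected on review; inactive means inhibition not above the cutoff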
HSV augment = increases HSV replication in cells. HSV replication augmentation in cells, fold increase. maximum fold increase. 220,000 tested, 0.005% active. AID 1956;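 active means peak rise of 1.5-fold or more in the series; inconclusive means self-fluorescent or not available for retest; tested in PC3 cells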;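 further: first round at 10 µM; read as green reporter fluorescence; hits show the peak of a series up to 25 µM; 1 = signal of infected wells without compound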
GALR2 ag = GALR2 (human) receptor agonism; GALR2-expressing cells, agonist activation read-out; AID 803; activation, %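 (tested at 5 µM)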; 140,000 tested, 0.48% active; O43603;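 active means above mean plus 3 SD of all compounds, about 5% in these data, not always enough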;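 further: 0% = vehicle buffer wells and 100% = reference agonist at full effect; tested in CHO reporter cells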
Target sequence (O43603 whole entry, looked up): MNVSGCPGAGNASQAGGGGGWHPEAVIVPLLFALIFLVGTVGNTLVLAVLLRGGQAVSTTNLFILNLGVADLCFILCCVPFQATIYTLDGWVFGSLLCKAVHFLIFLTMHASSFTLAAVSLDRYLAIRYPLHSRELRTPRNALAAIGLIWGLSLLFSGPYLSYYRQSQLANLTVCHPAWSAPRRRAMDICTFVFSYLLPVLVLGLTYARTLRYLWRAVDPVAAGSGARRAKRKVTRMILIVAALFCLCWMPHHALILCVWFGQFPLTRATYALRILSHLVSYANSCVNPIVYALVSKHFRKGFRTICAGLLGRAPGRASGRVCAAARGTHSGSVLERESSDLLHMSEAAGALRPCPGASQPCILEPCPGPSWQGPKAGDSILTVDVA
PKD1 kinase inh = PKD1 (human) kinase inhibition | Q15139 | PKD1 kinase fluorescence polarization assay | inhibition, %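 (about 10 µM by stock and volumes)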 | 200,000 tested, 0.056% active;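 active means inhibition of 50% or more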;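 further: controls were vehicle for no effect and a reference inhibitor for full effect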
RGS16-Gao = RGS16-Galphao interaction regulator (human). O15492+P09471. bead-based flow cytometry RGS16-Galphao binding, fluorescence; actives lie on both sides. binding response (% of control), % at 10 µM. 220,000 tested, 0.38% active;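 active means below 25% or above 175%, edge rows of some plates excepted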;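 further: Galphao activated by GDP with aluminum fluoride before binding; 100% = wells without compound and 0% = beads without RGS; some results beyond the cut were filed as inactive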
Target sequence (O15492 whole entry, looked up): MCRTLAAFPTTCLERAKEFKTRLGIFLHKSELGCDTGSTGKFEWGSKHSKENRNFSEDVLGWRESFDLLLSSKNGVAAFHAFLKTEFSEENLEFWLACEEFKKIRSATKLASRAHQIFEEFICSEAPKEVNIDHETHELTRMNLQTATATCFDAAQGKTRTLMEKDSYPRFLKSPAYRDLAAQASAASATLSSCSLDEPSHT
Target sequence (P09471 whole entry, looked up): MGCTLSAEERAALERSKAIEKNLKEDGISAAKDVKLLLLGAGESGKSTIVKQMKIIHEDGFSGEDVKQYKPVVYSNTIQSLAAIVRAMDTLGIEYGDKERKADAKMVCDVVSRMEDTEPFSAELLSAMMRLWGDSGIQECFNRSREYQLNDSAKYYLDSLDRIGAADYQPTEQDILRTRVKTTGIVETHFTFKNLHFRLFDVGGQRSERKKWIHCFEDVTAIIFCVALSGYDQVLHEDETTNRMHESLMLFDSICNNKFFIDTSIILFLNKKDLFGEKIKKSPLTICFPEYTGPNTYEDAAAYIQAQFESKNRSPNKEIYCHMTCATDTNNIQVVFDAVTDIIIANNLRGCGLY
INS promoter inh cell count = also measured in INS promoter inh; calls as there; normalized cell count, %; measured here: cell count, toxicity; reference of the scale not given here;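 cells exposed to compound for 48 h; stained nuclei by imaging scaled within each plate; lower means fewer cells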
HSV augment primary fold = recorded beside HSV augment, whose call it bears; fold increase; compound at 10 µM; measured here: primary screen fold increase 10 uM; tested in PC3 cells;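 GFP signal in the first replicate; 1 = infected wells without compound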
The depositor's hits bear a star; i = inactive; ? = inconclusive; . = not tested or not shown. Compounds were not picked by outcome; about 1.3% have a hit in one of these screens.

SMILES | INS promoter inh | INS promoter inh cell count | HSV augment | HSV augment primary fold | GALR2 ag | PKD1 kinase inh | RGS16-Gao
CCOC(=O)NC(=O)/C(N=Nc1cccc(C(F)(F)F)c1)=C(\C)O | 39.5 | 134.7 | i | 1.01 | . | 0.6 | 93.1
Nc1ccc(N=Nc2ccccc2)c(N)n1 | -4.8 | 101.6 | i | 0.93 | -0.2 | -8.2 | 99.5
CCOC(=O)c1ccc(NC(=O)Cn2nnc(-c3ccccc3F)n2)cc1 | -11.1 | 56.6 | i | 1.03 | -0.6 | -6.3 | 43.6
CN(Cc1ccco1)C(=O)Cn1c(=O)oc2cc(S(=O)(=O)NCc3ccccc3)ccc21 | . | . | i | 1.07 | -1.2 | 3.2 | 101.9
Cn1c(=O)c2[nH]c(N3CCN(c4cccc(O)c4)CC3)nc2n(C)c1=O | . | . | i | 1 | . | -0.8 | 102.9
Cc1onc(-c2c(F)cccc2Cl)c1C(=O)N1CCN(S(C)(=O)=O)CC1 | 0.0 | 56.0 | i | 0.96 | -0.6 | -4.9 | 88.5
Cc1cccc(CSCCNC(=O)CN(c2cc(C)cc(C)c2)S(C)(=O)=O)c1 | . | . | i | 0.84 | . | . | 105.3
COc1cc(NS(=O)(=O)c2ccc(N)cc2)ncn1 | . | . | i | 0.96 | . | -0.1 | 102.0
CCOn1c(-n2nc(C)cc2C)nc2ccccc2c1=O | -27.0 | 225.2 | i | 0.95 | 0.0 | -0.3 | 99.2
Cc1cc(NC(=O)C(=O)c2c(C)[nH]c3ccccc23)no1 | 20.0 | 114.3 | i | 0.97 | . | 1.3 | 102.4
O=c1[nH]c2c(s1)C(c1ccc(O)cc1)C1C3CCC(C3)C1S2 (configuration not stated) | . | . | i | 0.97 | -1.8 | -1.0 | 96.4
CC(C)=N/N=C1\NC(=O)C(C)S1 (configuration not stated) | . | . | i | 0.85 | . | . | 81.7
Cc1ccc(-c2cc(C(=O)NCc3ccco3)c3ccccc3n2)o1 | 31.2 | 88.2 | i | 0.98 | -1.0 | -1.1 | 94.4
N=C1/C(=C\c2ccc(-c3cccc(Cl)c3)o2)C(=O)N=C2SC=C(c3ccccc3)N12 | . | . | i | 1.25 | -1.4 | -12.4 | 93.5
Cc1ccc(-c2c(C#N)c(N)n(-c3ccc(C)cc3)c(=O)c2C#N)cc1 | -20.0 | 107.7 | i | 0.88 | -3.8 | -3.5 | 100.1
CC(C)CN1CCC(C(=O)N2CCN(c3ccccc3F)CC2)CC1 | -8.3 | 107.4 | . | . | -0.4 | -3.3 | 110.7
Cn1nnnc1SCCNCc1ccccc1OCc1ccccc1Cl | . | . | i | 1.02 | . | 0.9 | 106.4
COc1ccc(C(CNC(=O)c2ccc(S(=O)(=O)N3CCOCC3)cc2)N2CCCCC2)cc1 (configuration not stated) | . | . | i | 0.98 | -0.2 | 3.9 | 105.8
C/C=C\C=C\C(=O)N1CC2(CC(c3cccc(NC(=O)COc4ccc(Cl)cc4)c3)=NO2)C[C@H]1C(N)=O (some centres not stated) | . | . | i | 0.78 | . | . | 94.9
COc1ccc(N2CCN(C(=O)CCc3ccc(S(=O)(=O)NC(C)C)cc3)CC2)cc1 | 31.2 | 115.7 | i | 0.87 | -0.7 | 10.5 | 97.7
CCOC(=O)N1CCN(Cc2nc(N)nc(Nc3ccccc3C)n2)CC1 | 60.7 | 100.9 | i | 1.07 | -1.3 | 3.2 | 110.6
Cc1ccc(NC(=O)c2cccc(S(C)(=O)=O)c2)cc1 | 0.0 | 67.8 | i | 0.96 | . | -2.1 | 110.1
COc1ccccc1CNC(=O)CCSCc1cccc(Cl)c1 | 16.7 | 115.6 | i | 0.96 | 0.3 | -10.9 | 241.3
COC(=O)C(Cc1ccccc1)NC(=O)CSc1nc(C)cc(=O)[nH]1 (configuration not stated) | . | . | i | 0.89 | -1.9 | -8.9 | 105.4
C=C1C(C(=O)Nc2ccc(F)cc2)C1C(=O)Nc1ccc(F)cc1 (configuration not stated) | 40.5 | 76.0 | i | 1.03 | . | -6.9 | 103.6
Next section
SMILES | INS promoter inh | INS promoter inh cell count | HSV augment | HSV augment primary fold | GALR2 ag | PKD1 kinase inh | RGS16-Gao
O=C1CC(c2ccco2)CC2=C1C(c1ccccc1)n1nc(C(F)(F)F)nc1N2 (configuration not stated) | -50.0 | 99.0 | i | 0.97 | -0.7 | -5.8 | 100.5
COc1cccc(NS(=O)(=O)c2ccc3[nH]cc(C(=O)NC4CC4)c(=O)c3c2)c1 | -225.6 | 99.1 | i | 1.1 | -0.7 | -5.0 | 115.0
CCOC(=O)Cc1csc(N)n1 | 40.9 | 90.1 | i | 0.94 | -1.5 | -5.3 | 63.7
COCCCNS(=O)(=O)c1ccc2[nH]c(=O)[nH]c2c1 | . | . | i | 0.97 | . | . | 100.4
CCOC(=O)C(NC(C)=O)(OCc1ccccc1)C(F)(F)F (configuration not stated) | -14.3 | 110.8 | i | 0.98 | -1.8 | -2.7 | 102.0
Cc1cc(C)nc(NN2C(=O)/C(=C/c3ccc(O)cc3)SC2=S)n1 | . | . | ? | . | -2.3 | -7.8 | 95.6
O=C(CC12CC3CC(CC(Br)(C3)C1)C2)OCCN1CCCCC1 | -38.1 | 50.9 | i | 0.94 | . | 1.3 | 153.4
Cc1ccccc1S(=O)(=O)Nc1ncc(C(F)(F)F)cc1Cl | . | . | i | 1.03 | . | -5.5 | 101.0
Cn1c(SC/C=C/c2ccccc2)nnc1-c1cccs1 | -24.1 | 51.3 | i | 0.73 | -0.2 | 1.2 | 101.4
CC(C)Nc1nc(NC(C)C)nc(OCCOC(=O)c2ccccc2)n1 | 42.9 | 110.0 | i | 1.01 | -2.1 | -5.2 | 115.8
O=C(CSc1nnc(CNc2ccccc2)o1)N1CCc2ccccc21 | -14.3 | 150.1 | i | 0.82 | -0.8 | -6.9 | 101.9
C=CCn1c(SCC(=O)NCc2ccc3c(c2)OCO3)nnc1-c1cccnc1 | 76.5* | 38.9* | i | 0.92 | . | 2.8 | 92.5
CC1(C)CC(=O)c2cnc3nc4ccccc4n3c2C1 | 76.2* | 56.3* | i | 0.65 | . | -5.8 | 116.9
O=C(COC(=O)/C=C/c1cn(-c2ccccc2)nc1-c1cccnc1)Nc1ccc(Cl)cc1Cl | . | . | i | 0.99 | 0.1 | -2.6 | 82.5
CN1CCc2c(sc(/N=C/c3cccs3)c2C(N)=O)C1 | . | . | ? | . | 0.8 | 7.3 | 105.8
COc1ccc(/C=C/C(=O)NC(=S)NNC(=O)c2c(-c3ccccc3)noc2C)cc1 | . | . | i | 0.93 | -1.4 | -5.7 | 100.6
COC(=O)c1ccc(NC(=S)NCc2ccco2)cc1 | . | . | i | 0.93 | . | -2.0 | 102.4
Nc1ncc(Br)cc1N=Cc1ccccc1 | 75.8* | 83.3* | ? | . | -0.1 | -2.1 | 97.2
CC1=C(C(N)=O)C(c2cccs2)n2nc(-c3cccc(C)c3)nc2N1 (configuration not stated) | . | . | i | 0.85 | 0.8 | 1.7 | 26.4
CC/C(O)=C1\C(=O)CC(C)(C)CC1=Nc1ccccc1C | 16.7 | 125.4 | i | 0.95 | 0.5 | 1.7 | 105.9
CC(C)CC(NC(=O)c1ccc(Cl)cc1)C(=O)OCC(=O)c1ccc2c(c1)NC(=O)CO2 (configuration not stated) | -16.4 | 90.2 | i | 1.08 | -8.5 | -8.3 | 100.4
Cc1ccc(NC(=O)COc2ccc(-c3nnco3)cc2)cc1S(=O)(=O)N1CCOCC1 | . | . | i | 1.01 | . | -5.3 | 98.9
CC(Sc1nc2scc(-c3ccccc3)c2c(=O)[nH]1)C(=O)NC(N)=O (configuration not stated) | . | . | i | 0.91 | . | . | 104.3
CCOC(=O)C(C)Sc1ncnc2nc[nH]c12 (configuration not stated) | i | 75.6 | i | 0.96 | -1.5 | -4.7 | 25.1
Cc1cc(C)nc(NC(=O)Cc2ccc([N+](=O)[O-])cc2)c1 | 21.9 | 99.6 | i | 0.86 | -0.3 | -17.0 | 95.2

Complete entries as entered above. Order of screens: INS promoter inh, INS promoter inh cell count, HSV augment, HSV augment primary fold, GALR2 ag, PKD1 kinase inh, RGS16-Gao
Entry for O=C(CSc1nnc(CNc2ccccc2)o1)N1CCc2ccccc21 : -14.3, 150.1, i, 0.82, -0.8, -6.9, 101.9
Entry for CC(Sc1nc2scc(-c3ccccc3)c2c(=O)[nH]1)C(=O)NC(N)=O (configuration not stated) : ., ., i, 0.91, ., ., 104.3
Entry for CC(C)Nc1nc(NC(C)C)nc(OCCOC(=O)c2ccccc2)n1 : 42.9, 110.0, i, 1.01, -2.1, -5.2, 115.8

Further results:
SMILES | INS promoter inh | INS promoter inh cell count | HSV augment | HSV augment primary fold | GALR2 ag | PKD1 kinase inh | RGS16-Gao
Cc1nc(Oc2ccccc2)c2ccsc2n1 | . | . | i | 1.03 | . | -2.4 | 100.4
CCCCCCNC(=O)c1ncn[nH]1 | . | . | i | 1.1 | . | . | 104.5
C(=N/Nc1nc(-c2ccccc2)cc(-c2ccccc2)n1)/c1cccnc1 | . | . | i | 1.05 | 2.0 | 14.3 | 100.8
C/C(=N\OCC(=O)Nc1ccc(OC(F)(F)F)cc1)c1ccc2c(c1)OCCO2 | -40.0 | 79.1 | i | 1.01 | -2.4 | 1.2 | 79.8
[N-]=[N+]=CC(=O)C(Cc1ccccc1)N1C(=O)c2ccccc2C1=O (configuration not stated) | 10.3 | 144.8 | i | 0.9 | -2.7 | -13.2 | 101.7
CCOc1cccc(-n2nnnc2-c2ccc(OC)cc2)c1 | -200.0 | 84.2 | i | 0.5 | -1.3 | -1.4 | 108.7
CC1=C(C(=O)OC(C)C)C(c2ccsc2)NC(=O)N1C (configuration not stated) | -328.6 | 37.9 | i | 0.83 | -2.0 | -9.1 | 100.9
O=C(/C=C/c1cccs1)N1CCN(c2ccccc2)CC1 | -57.9 | 127.1 | i | 1.03 | . | -4.3 | 101.9
COc1cc(NC(=O)C2CCCN(S(=O)(=O)c3ccc4c(c3)oc(=O)n4C)C2)cc(OC)c1 (configuration not stated) | . | . | i | 0.87 | -3.7 | 19.2 | 96.6
NCCCC[C@H](NC(=O)C1CCNCC1)c1nnc(CN)o1 | . | . | i | 1.04 | . | -5.2 | 100.9
COC(=O)C(=C/C=C/c1ccco1)C(=O)OC | . | . | i | 1 | . | . | 105.8
O=C(Nc1ccc(Cl)cc1)OCCn1nnnc1C(c1ccccc1)N1CCOCC1 (configuration not stated) | -88.6 | 79.6 | i | 0.99 | 0.3 | -0.8 | 98.5
Nc1nc(CN2CCN(c3ccccc3F)CC2)nc(Nc2ccccc2)n1 | 12.1 | 82.1 | i | 0.93 | -2.5 | 0.1 | 101.1
CCOC(=O)Cc1ccc(NC(=O)c2cccc([N+](=O)[O-])c2)cc1 | . | . | i | 1.05 | . | -1.2 | 99.6
COc1ccc(C(=O)c2cnc3cc4c(cc3c2C)OCO4)cc1 | 25.0 | 89.6 | i | 0.903 | -0.9 | -4.5 | 169.3
CCOc1ccc(NC(=S)N(CCc2ccncc2)C(C)C)cc1 | . | . | i | 1.05 | . | 1.0 | 98.0
CC1(C)CC2CC(C)(CN2S(=O)(=O)c2ccc(N)cc2)C1 (configuration not stated) | -13.2 | 105.6 | i | 1.02 | 0.1 | 4.6 | 108.3
CCN(CC)CC#CCC(OC)(c1ccccc1)c1ccccc1 | . | . | i | 0.92 | . | -2.7 | 88.7
COC(=O)C(NC(C)=O)(Nc1ccc(C)cn1)C(F)(F)F (configuration not stated) | . | . | i | 1.38 | . | . | 94.4
COC(=O)c1ccc(N=NN2CCCCC2)cc1 | . | . | i | 1.04 | . | -1.4 | 103.2
COC(=O)c1ccc(OCC(=O)c2ccccc2OC)cc1 | 73.3 | 106.9 | i | 0.66 | -1.8 | -4.8 | 106.4
CCn1c(C)cc(/C=C2\NC(=O)N(Cc3ccccc3)C2=O)c1C | -10.1 | 129.8 | i | 0.99 | -2.2 | 5.0 | 99.5
O=C(C(NS(=O)(=O)c1cccc2nsnc12)c1ccccc1)N1CCN(c2ccccn2)CC1 (configuration not stated) | -85.7 | 192.4 | i | 0.81 | -3.1 | 3.7 | 100.9
O=C(O)c1cc2ccc3ccccc3c2oc1=O | 5.0 | 125.4 | i | 0.87 | -0.3 | 1.5 | .
Cc1cc(C)n(-c2ccc(F)cc2)c(=O)c1C(=O)O | 6.2 | 137.5 | i | 0.92 | 1.7 | 0.7 | 96.8
Oc1ccc(Br)cc1/C=N/n1cnc2ccccc21 | -7.1 | 33.8 | i | 0.93 | -1.7 | -1.8 | 97.3
CCOc1cc(/C=N\NC(=O)Cc2ccccc2)ccc1OCC(=O)Nc1ccc(C)c(C)c1 | 13.3 | 108.0 | . | . | -0.9 | -1.1 | 91.3
c1ccc2c(Nc3nnc(-c4ccncc4)s3)cccc2c1 | . | . | i | 0.9 | -0.6 | -11.8 | 97.6
Cc1nc(-c2ccc(C#N)cc2)cs1 | . | . | i | 1.14 | . | . | 96.1
